From PubChem BioAssay
RanGTP-Impb inh: inhibitors of RanGTP-importin-beta interaction, primary screen, biochemical, FRET, CFP-Ran, YFP-importin-beta, homogeneous | cell-free CFP-Ran/YFP-importin-beta FRET ratio | Ran GTPase (GTP-bound) - importin-beta complex | 300,000 compounds, 1.1% hits | inhibition, % (test concentration not listed);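 active = most replicates above 15%; inconclusive = exactly half above 15%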;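 also: 0% = DMSO wells and 100% = Ran loaded with GDP instead of GTP; wells of about 40 µL received 100 nL stock; the first replicate is given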
ALR H2O2 inh: inhibitors of human ALR sulfhydryl oxidase, primary screen, biochemical, H2O2 detection, HRP-luminol luminescence, single point; FAD-linked sulfhydryl oxidase ALR (Homo sapiens), P55789; purified ALR, DTT oxidation; inhibition, % (test concentration not listed); 290,000 compounds, 3.8% hits;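 active = mean and each replicate at 75% or more; inconclusive = only one of the two met; inactive = neither met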;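 also: stock transfer was 7.5 nL into about 7.5 µL; 0% = neutral wells and 100% = wells with inactivated enzyme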
Target sequence (P55789 whole entry, looked up): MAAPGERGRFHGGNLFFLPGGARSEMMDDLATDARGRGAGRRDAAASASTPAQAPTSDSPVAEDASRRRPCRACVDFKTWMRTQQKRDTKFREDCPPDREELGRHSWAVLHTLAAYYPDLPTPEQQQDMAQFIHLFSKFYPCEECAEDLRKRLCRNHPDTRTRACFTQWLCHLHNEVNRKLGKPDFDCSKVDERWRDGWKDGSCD
Calb FLC: C. albicans growth inhibition with fluconazole, primary screen, CaCi-2 strain, Alamar Blue fluorescence; AID 1979, 2009; C. albicans CaCi-2 (fluconazole-resistant clinical isolate) + fluconazole, 48 h; 300,000 compounds, 0.57% hits; growth inhibition, % (no concentration beside the values);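 active = most replicates above 75%; inconclusive = exactly half above 75%; inactive = most below 75%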;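 also: all wells also contain fluconazole at 8 µg/ml as a sub-toxic cotreatment; 0% = median of DMSO wells and 100% = median of geldanamycin control wells; wells of about 8 µL received 7.5 nL stock; the first replicate is given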
LANA-H2A inh: blockers of LANA interaction with H2A/H2B – biochemical, FP readout, HTS, primary screen. cell-free LANA-H2A/H2B peptide, fluorescence polarization. inhibition, % (test concentration not listed). Protein LANA1 (Human herpesvirus 8 type P (isolate GK18)), Q9QR71. AID 2629, 2010. 320,000 compounds, 0.6% hits; in the data active = inhibition mostly above about 10%, no sharp cut-off; inactive = mostly below about 6.7%;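 also: stock transfer was 7.5 nL into about 10 µL; 0% = median of vehicle wells and 100% = median of positive control wells; one replicate is shown; the record names a cut of 25% in any replicate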
HNF4A DNA FP: change in binding of human HNF4A to DNA, primary screen, biochemical, fluorescence polarization, FITC-DNA | activity change, % at 10 µM | 360,000 compounds, 0.3% hits | Hepatocyte nuclear factor 4-alpha (Homo sapiens), P41235 | 1 h; in the data active = activity change above about 30%, passing the limit was not always enough;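 also: controls were the assay level and a saturating level of protein; the project sought stronger binding though the title names inhibitors; some compounds called inactive have numbers as strong as hits; positive values seem to mean higher polarization but the record does not say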
Target sequence (P41235 whole entry, looked up): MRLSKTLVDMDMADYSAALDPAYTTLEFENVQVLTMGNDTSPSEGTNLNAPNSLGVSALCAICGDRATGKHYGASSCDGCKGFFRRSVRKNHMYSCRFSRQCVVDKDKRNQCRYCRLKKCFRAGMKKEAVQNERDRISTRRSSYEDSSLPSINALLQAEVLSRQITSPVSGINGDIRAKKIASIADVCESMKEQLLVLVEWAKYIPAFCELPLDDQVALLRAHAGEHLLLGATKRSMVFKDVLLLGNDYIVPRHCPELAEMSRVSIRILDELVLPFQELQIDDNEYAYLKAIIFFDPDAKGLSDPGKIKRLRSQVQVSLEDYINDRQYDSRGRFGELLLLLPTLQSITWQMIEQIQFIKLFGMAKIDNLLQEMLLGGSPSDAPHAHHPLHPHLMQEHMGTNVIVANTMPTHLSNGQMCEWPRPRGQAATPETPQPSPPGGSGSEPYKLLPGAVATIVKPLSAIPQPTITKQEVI
Vif TR-FRET: inhibitors of Vif binding to APOBEC3G peptide, primary screen, biochemical, TR-FRET, GST-Vif 1-94, biotin-A3G peptide, dose response retest (AID 1117319); Virion infectivity factor (Human immunodeficiency virus type 1 group M subtype B (isolate …; TR-FRET GST-Vif / biotin-A3G peptide binding; higher % means a stronger effect; test concentration not given here; strong numbers were not always called active; inhibition, %; hits with a dose series show IC50 in µM; 260,000 compounds, 0.57% hits;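 active = above the screen mean plus three standard deviations and confirmed in dose response; inconclusive = results disagree or hit not tested in dose response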;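 also: Vif residues 1-94 fused to GST binding biotinylated APOBEC3G peptide 110-148; 0% = full assay without inhibitor and 100% = GST in place of GST-Vif; retest series ran down from 100 µM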
Beta2AR agonist: beta2AR agonists driving receptor internalization, primary screen, cell-based, FAP fluorogen, flow cytometry; response, % (no concentration beside the values); 340,000 compounds, 0.43% hits; Am2.2-beta2AR cells; reference of the scale not given here;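 active = response above a set limit, near 3 SD of response in nonfluorescent compounds, cut at about 42% in these data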;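 also: stock transfer was 100 nL into about 11 µL; a reference agonist was the positive control; negative values mostly stem from fluorescent compounds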
Numbers without * were called inactive; ? = inconclusive; nt = no result given; & = joins results of further samples.

A first look (4 entries):
#	compound	RanGTP-Impb inh	ALR H2O2 inh	Calb FLC	LANA-H2A inh	HNF4A DNA FP	Vif TR-FRET	Beta2AR agonist
1	CC(OC(=O)c1cc[n+]([O-])cc1)C(=O)NCc1ccccc1 (configuration not stated)	1.4	0	-3	-1.2	-0.6	6%	10
2	O=C(CNC(=O)c1cccs1)OCC(=O)c1cccs1	0.6	0	2	3.6	-3.5	0%	-3
3	Cc1cc(C)c2nc(SCC(=O)NCCC3=CCCCC3)cc(C)c2c1	-0.6	-1	7	-4.5	2.7	-4%	-2
4	CCOc1ccc(S(=O)(=O)NCCC(=O)NCCOc2ccccc2)cc1	-3.0	-4	4	-0.1	-0.2	-3%	3

This part in full, repeating the preview:
#	compound	RanGTP-Impb inh	ALR H2O2 inh	Calb FLC	LANA-H2A inh	HNF4A DNA FP	Vif TR-FRET	Beta2AR agonist
1	CC(OC(=O)c1cc[n+]([O-])cc1)C(=O)NCc1ccccc1 (configuration not stated)	1.4	0	-3	-1.2	-0.6	6%	10
2	O=C(CNC(=O)c1cccs1)OCC(=O)c1cccs1	0.6	0	2	3.6	-3.5	0%	-3
3	Cc1cc(C)c2nc(SCC(=O)NCCC3=CCCCC3)cc(C)c2c1	-0.6	-1	7	-4.5	2.7	-4%	-2
4	CCOc1ccc(S(=O)(=O)NCCC(=O)NCCOc2ccccc2)cc1	-3.0	-4	4	-0.1	-0.2	-3%	3
5	Cc1ccc(C(=O)NCC(=O)N/N=C/c2sccc2C)cc1[N+](=O)[O-]	1.5	nt	0	-3.4	-3.6	0%	0
6	COc1cc(C2C(C(=O)c3ccco3)=C(O)C(=O)N2Cc2cccnc2)cc(OC)c1OC (configuration not stated)	-1.6	32	-11	-7.7	4.7	1%&-2%	11
7	CNC(=O)CC(C(=O)O)c1ccc(OC(C)C)cc1 (configuration not stated)	0.7	-2	?	-3.1	-3.1	0%	-4
8	CCCCc1nc2cc(C(=O)N3CCCCC3CCNC(C)=O)ccc2o1 (configuration not stated)	2.4	5	1	-0.8	-6.0	nt	6
9	Cc1ccc(/C=N/NC(=O)c2nnn(-c3nonc3N)c2-c2ccc3c(c2)OCO3)s1	-0.3	-3	27	-0.5	0.1	nt	5
10	Cc1cc(C(=O)NCCN2CCOCC2)c2ccccc2n1	nt	-5	nt	-2.3	0.1	nt	-3
11	O=C(CSc1nnc(CNC(=O)c2cccs2)o1)NC1CCCC1	1.2	3	nt	0.5	-0.9	16%	2
12	O=C(Cc1ccc(-n2cccc2)cc1)NC1CCCCCC1	1.0	-7	-16	0.0	-8.1	28%	-3
13	COC(=O)c1sc2nc(C)c([N+](=O)[O-])c(C)c2c1N	-0.3	-5	?	6.3	1.0	6%	1
14	C=CCn1c(=NC(=O)CC)n(C)c2ccccc21	-2.7	-16	2	-4.7	4.6	0%	6
15	Cn1nc(C(=O)OCC(=O)N(Cc2ccccc2)C(C)(C)C)c2ccccc2c1=O	nt	nt	nt	nt	-1.8	6%	4
16	O=C(NC1CCCCCCC1)C1CCN(S(=O)(=O)N2CCCC2)CC1	12	-4	-20	-1.2	-0.3	-6%	0
17	Clc1ccc(CSc2nnc(-c3ccncc3)s2)cc1	-0.2	-22	13	-1.8	-3.9	3%	-4
18	CC(C)NCC(=O)Nc1c2c(nc3ccccc13)CCC2	-1.2	-1	-8	1.0	5.0	nt	-18
19	COc1ccc(C(=O)Nc2cc(C(F)(F)F)ccc2-n2cnc3ccccc32)cc1	0.9	nt	?	nt	-0.2	nt	-4
20	Cc1ccc(SCCC(=O)Nc2ccccc2Br)cc1	-1.2	-2	3	5.8	2.2	9%	-3
21	COc1ccc(C(=O)Nc2ccc3c(c2)CCCN3C(=O)c2cccs2)c(OC)c1	3.0	2	-8	-0.4	-2.5	nt	8
22	COc1ccccc1NC(=O)N1CCCC1C(=O)NCc1ccccc1Cl (configuration not stated)	-4.5	-16	-24	4.4	2.4	nt	-4
23	CN(C)CCN(Cc1cc2cc3c(cc2[nH]c1=O)OCO3)C(=S)NCC1CCCO1 (configuration not stated)	-13	-2	-3	-4.2	-2.4	-4%	-1
24	O=[N+]([O-])c1ccccc1CN1CCN(Cc2ccc3ccccc3c2)CC1	-3.6	-1	5	-2.4	-4.5	nt	-1
25	CC(C)c1ccc(NC(=O)CSC(C)c2nc3ccccc3c(=O)[nH]2)cc1 (configuration not stated)	1.5	-8	2	-5.5	0.9	3%	2
26	COc1ccc(S(=O)(=O)N2CCN(C(=O)c3c(C)nn(-c4ccccc4)c3Cl)CC2)cc1	-0.6	4	3	3.3	-1.8	17%&-2%	-1
27	Cc1cc(=O)[nH]c(Nc2c(C)n(C)n(-c3ccccc3)c2=O)n1	-1.6	4	-5	-5.1	3.5	3%	5
28	CCOc1ccc(C(C)NC(=O)C2CCC2)cc1 (configuration not stated)	-3.6	2	-16	-1.8	-0.8	nt	2
29	Cc1sc2nc(CSC(C)C(=O)Nc3ccc(Cl)cn3)[nH]c(=O)c2c1C (configuration not stated)	nt	9	nt	-21	5.1	2%	3
30	O=C1c2ccccc2C(=O)N1CCSc1nc2ccccc2c(=O)n1CCCN1CCOCC1	-0.9	-18	8	6.0	-2.1	-10%	-19
31	CCOC(=O)C1CCN(S(=O)(=O)c2ccc3c4c(cccc24)C(=O)N3)CC1	?	-3	-2	2.0	1.1	-2%	1
32	O=C(C1CCN(S(=O)(=O)c2cccnc2)CC1)N1CCN(c2ccc(Cl)cc2)CC1	4.2	15	4	4.8	6.7	?	12
33	CCC(OC(=O)c1cccs1)C(=O)NCc1ccco1 (configuration not stated)	5.9	6	-2	-4.7	-0.8	6%	2
34	COc1ccccc1NS(=O)(=O)c1cc(NC(=O)c2cccc(S(=O)(=O)N(C)C)c2)ccc1N1CCOCC1	nt	nt	nt	nt	0.5	4%	-3
35	CC(C)NC(=O)c1ccccc1NC(=O)Cc1ccc(Cl)cc1	-1.4	-3	-3	0.0	0.1	-3%	-1
36	CCCCN(C(=O)CC1CCCC1)c1c(N)n(CCC)c(=O)[nH]c1=O	nt	-2	nt	0.9	-0.1	11%	5
37	CCCS(=O)(=O)N1CCN(Cc2ccc(OCc3ccccc3)c(OC)c2)CC1	5.0	-2	12	-3.6	-1.4	nt	8
38	CCCC(C)NC(=O)c1nc(-c2ccccc2)n(-c2ccccc2)n1 (configuration not stated)	3.8	nt	1	nt	-2.9	2%	-17
39	COc1ccc(C(=O)OCC(=O)NC2CCCCCC2)cc1OC	nt	-5	nt	-4.0	-0.1	-17%	-6
40	O=C(Nc1ccccc1)c1ccccc1C(=O)N1CCCCC1	-2.8	2	1	2.5	4.4	5%	-9
41	O=C(CN1C(=O)c2ccccc2C1=O)OCCOCCN=C1NS(=O)(=O)c2ccccc21	0.8	1	-9	-4.3	-3.3	-5%	-2
42	COc1ccc(-c2c(-c3cc(OC)cc(OC)c3)n(C)c3ccc(-c4ccc(OC)nc4)cc23)cc1	nt	-9	nt	1.2	1.4	nt	3
43	CC(C)N(C(=O)[C@H]1C[C@H](CC(=O)NCC23CC4CC(CC(C4)C2)C3)C(=O)N2CCc3c([nH]c4ccc(Cl)cc34)[C@]12C)C(C)C	nt	nt	nt	nt	-2.2	3%	-4
44	CCOC(=O)CC1(NC(=O)C2CCC(=O)N(CCc3ccc(OC)cc3)C2)CCCCC1 (configuration not stated)	1.4	-5	4	0.9	-0.5	nt	2
45	CS(=O)(=O)N1CCN(c2ccccc2NC(=S)NC(=O)c2ccccc2[N+](=O)[O-])CC1	-1.2	-8	3	6.2	0.7	-5%	18
46	Cc1nc2c(-c3ccccc3)c(C)[nH]n2c(=O)c1Cc1ccccc1	3.7	14	3	-2.5	-1.0	9%	-5
47	COc1ccc(NC(=O)CN2CCN(c3ccc(F)cc3)CC2)cc1	-1.6	31	-2	1.0	0.7	-3%	-5
48	CC(C)=CCCC(C)CN1CCC(N2CCC(C(=O)N3CCOCC3)CC2)CC1 (configuration not stated)	4.2	-2	-31	0.1	4.0	28%	3
49	COCCN(C(=O)c1ccc(OC2CCN(S(=O)(=O)N(C)C)CC2)cc1)C(C)C	1.3	-3	-3	1.6	0.4	nt	-1
50	O=C(c1nsc(Cl)c1Cl)N1CCCCC1	-1.8	-4	1	-4.4	4.1	2%	5

(continued)
#	compound	RanGTP-Impb inh	ALR H2O2 inh	Calb FLC	LANA-H2A inh	HNF4A DNA FP	Vif TR-FRET	Beta2AR agonist
51	CCc1ccc(OCCCC(=O)Nc2ccc(N3CCOCC3)cc2)cc1	?	-9	12	0.8	-2.7	nt	10
52	COc1ccc(N2C(=O)CCC(C(=O)O)C2c2ccccc2OC)cc1 (configuration not stated)	4.1	-4	1	2.5	4.3	15%	-3
53	CCOC(=O)C1CCN(C(C(=O)NC2CCCC2)c2ccc(C)cc2)CC1 (configuration not stated)	6.1	nt	-5	-0.4	1.4	9%	2
54	N#Cc1c(Cl)cccc1N1CCC(C(N)=O)CC1	?	-9	3	2.6	0.8	nt	3
55	COc1ccccc1/C=N\Nc1ccccc1[N+](=O)[O-]	-4.4	-1	0	5.0	1.1	-6%	0
56	Cc1ccc(S(=O)(=O)N2[C@@H](c3ccccc3)C(C(=O)O)=CC[C@H]2c2ccc(Cl)cc2)cc1	nt	4	nt	4.5	-4.2	nt	5
57	Cc1cccc(C)c1OCc1cc(C(=O)N2CCN(c3ccccn3)CC2)no1	-0.2	-4	-7	-10	-0.2	nt	5
58	Cc1oc(-c2ccccc2)nc1CC(=O)O	0.0	-5	1	1.9	4.6	10%	7
59	CC1CCC(C(=O)NC(C(=O)NCc2cccnc2)C(C)C)CC1 (configuration not stated)	4.3	-2	-6	5.0	6.6	-3%	4
60	O=C(O)c1ccc(-c2ccccc2)[nH]c1=O	2.5	-2	2	2.1	1.4	30%	-2
61	CCC(=O)c1ccc(OCC(=O)OCC(=O)Nc2cccc(S(=O)(=O)N3CCCC3)c2)cc1	nt	0	nt	1.8	-1.0	-4%	-1
62	Cc1ccc(O)c(NS(=O)(=O)c2cccc3nsnc23)c1	4.9	-4	-11	-4.1	79*	1%	-3

Outcome played no part in choosing rows; any-hit rate near 6.3%.
